Mtb growth – M. tuberculosis H37Rv growth inhibitors, H37Rv strain (AID 1626); M. tuberculosis H37Rv growth inhibition; higher % means a stronger effect; inhibition, % at 10 µM, or IC50 in µM where a hit was titrated; hit rate 0.95% among 220,000;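 active = confirmed in a dose series; inconclusive = inhibition above 80% but not taken into the dose series; inactive = below 80% or under 30% at every dose of the series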;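 note: bacteria incubated seven days before Alamar blue readout; 0% = bacteria only wells and 100% = bacteria with antibiotic wells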
Mtb bLac sens – beta-lactam sensitization of Mtb H37Rv, H37Rv; M. tuberculosis H37Rv growth with meropenem, percent inhibition; hits of this screen are not shown here; inhibition, % at 25 µM; hit rate 0.27% among 330,000; AID 434955, 2010;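 active = about 74% or more and at least 40 points above the plate without the antibiotic, then above 30% in a dose series; inconclusive = first-round hits that could not be retested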;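 note: growth measured after seven days incubation then overnight dye step; 0% = bacteria only wells and 100% = bacteria with antibiotic; twin plates without the antibiotic show which effects depend on it; some results filed as inactive read as strong as hits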
YopH PTP inh – YopH tyrosine phosphatase inhibitors, primary screen, biochemical, fluorescence Ex485/Em525. YopH tyrosine phosphatase [Yersinia enterocolitica]. inhibition, %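 (about 10 µM by stock and volumes)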. hit rate 0.16% among 140,000. AID 898, 2007;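 active = inhibition of 50% or more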;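 note: controls were vehicle for no effect and minimum signal wells for full effect; inactives centre near -20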
Arbovirus inh – antivirals against arbovirus infection, primary screen, cell-based, full library, 10K replicate subset. arbovirus infection cell-based antiviral screen. inhibition, % at 10 µM. hit rate 0.37% among 200,000. AID 1251, 2008;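 active = inhibition from about 30%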;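 note: bluetongue infection of BSR cells; cell survival read as ATP light after 72 h; 0% = infected wells without compound and 100% = uninfected wells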
RecA intein inh – Mtb RecA intein splicing inhibitors, primary screen, biochemical, fluorescence, HTS; AID 2221, 2009; inhibition, %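 (about 9 µM by stock and volumes)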; Protein RecA (Mycobacterium tuberculosis (strain ATCC 25618 / H37Rv)), P9WHJ3; hit rate 0.75% among 290,000; cell-free RecA intein splicing; in the data active = inhibition above about 30%; inconclusive = no clear call, values can overlap the other calls;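 note: 0% = vehicle wells and 100% = reference inhibitor control wells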
Target sequence (P9WHJ3 whole entry, looked up): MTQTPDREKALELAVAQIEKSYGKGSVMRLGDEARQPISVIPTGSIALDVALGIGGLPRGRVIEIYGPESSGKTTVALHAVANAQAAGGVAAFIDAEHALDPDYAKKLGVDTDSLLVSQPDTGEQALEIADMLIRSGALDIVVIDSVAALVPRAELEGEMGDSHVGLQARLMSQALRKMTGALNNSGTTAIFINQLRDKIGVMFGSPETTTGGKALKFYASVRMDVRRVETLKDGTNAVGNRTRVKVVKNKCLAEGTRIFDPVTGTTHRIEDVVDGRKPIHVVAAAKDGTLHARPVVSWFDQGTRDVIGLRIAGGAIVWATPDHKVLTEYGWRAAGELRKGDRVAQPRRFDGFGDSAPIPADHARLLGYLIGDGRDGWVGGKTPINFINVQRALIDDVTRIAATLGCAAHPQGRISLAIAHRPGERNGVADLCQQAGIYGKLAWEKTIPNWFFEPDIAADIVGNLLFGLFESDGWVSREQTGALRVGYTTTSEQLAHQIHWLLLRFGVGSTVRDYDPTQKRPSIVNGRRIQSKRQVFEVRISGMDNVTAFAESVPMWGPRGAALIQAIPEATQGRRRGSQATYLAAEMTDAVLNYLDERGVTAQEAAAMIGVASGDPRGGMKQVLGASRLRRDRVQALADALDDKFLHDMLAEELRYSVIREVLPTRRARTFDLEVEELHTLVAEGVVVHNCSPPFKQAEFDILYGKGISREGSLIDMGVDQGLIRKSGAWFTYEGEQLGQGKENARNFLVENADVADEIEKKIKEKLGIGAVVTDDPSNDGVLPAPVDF
Arbovirus inh repeat – recorded beside Arbovirus inh, whose call it bears; inhibition, %; measured here: 10K subset replicate screen; many hits read low in the repeat;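 first of two repeat runs on a subset; 0% = infected and 100% = uninfected wells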
The depositor's hits bear a star; ? = inconclusive; · = not tested or not shown.

Preview, 4 compounds:
SMILES | Mtb growth | Mtb bLac sens | YopH PTP inh | Arbovirus inh | RecA intein inh | others
COCCCn1c(=O)c2ccccc2n(Cc2ccc(C)cc2)c1=O | · | -9 | · | · | -0.8
O=C(O)CC(Cc1ccc(Br)cc1)C(=O)Nc1ccccc1 (centres undefined) | · | 4 | · | · | -3.0
Cc1ccc(Nc2nc3nonc3[nH]c2=O)cc1 | -14% | -6 | -4 | 21 | 0.3
Cc1ccc(NC(=O)CSc2ncccc2C(=O)Oc2cccc([N+](=O)[O-])c2)cc1Cl | 4% | 1 | -7 | 0 | -1.8

The list itself (from the top)
SMILES | Mtb growth | Mtb bLac sens | YopH PTP inh | Arbovirus inh | RecA intein inh | others
COCCCn1c(=O)c2ccccc2n(Cc2ccc(C)cc2)c1=O | · | -9 | · | · | -0.8
O=C(O)CC(Cc1ccc(Br)cc1)C(=O)Nc1ccccc1 (centres undefined) | · | 4 | · | · | -3.0
Cc1ccc(Nc2nc3nonc3[nH]c2=O)cc1 | -14% | -6 | -4 | 21 | 0.3
Cc1ccc(NC(=O)CSc2ncccc2C(=O)Oc2cccc([N+](=O)[O-])c2)cc1Cl | 4% | 1 | -7 | 0 | -1.8
CC(NS(C)(=O)=O)C(c1cccs1)N1CCN(c2ccccc2)CC1 (centres undefined) | -16% | -8 | -17 | 1 | 0.3
O=C(c1ccco1)N1CCN(C(c2ccc(Cl)cc2)c2nnnn2Cc2ccccc2)CC1 (centres undefined) | 0% | 9 | -18 | 7 | 6.7
CCCc1cc(NCCN(C)C)n2c(nc3ccccc32)c1C#N | · | -3 | · | · | -291
O=C(Cc1c(Cl)cccc1Cl)N/N=C/c1cccnc1 | · | -1 | · | · | -0.2
CC(C)c1ccccc1NS(=O)(=O)c1cccs1 | · | -4 | · | · | 5.6
COc1ccc(C2SCC(=O)Nc3c2c(=O)[nH]n3C2CCCCC2)cc1 (centres undefined) | -1% | -17 | -40 | -6 | 3.6
O=S1(=O)CCOC[C@H](CC2CCCCC2)N1Cc1ccccc1 | · | -1 | · | · | 1.7
CC1=NCCN1S(=O)(=O)c1ccc(Br)c(C)c1 | 9% | 5 | -30 | 10 | 0.6
CCC(=O)Nc1nc2c(OC)ccc(OC)c2s1 | -4% | -6 | -54 | -4 | 1.0 | Arbovirus inh repeat=-10
Cc1cccc(C(=O)OC(C)CN2CCN(C)CC2)c1 (centres undefined) | 7% | -13 | · | 1 | -0.2
CCOc1ccc2ccccc2c1C1NC(=O)NC(C)=C1C(=O)OCCOC (centres undefined) | · | -6 | · | · | 0.3

Grouped by structure, those above containing an aryl methoxy group (2)
SMILES | Mtb growth | Mtb bLac sens | YopH PTP inh | Arbovirus inh | RecA intein inh | others
COc1ccc(C2SCC(=O)Nc3c2c(=O)[nH]n3C2CCCCC2)cc1 (centres undefined) | -1% | -17 | -40 | -6 | 3.6
CCC(=O)Nc1nc2c(OC)ccc(OC)c2s1 | -4% | -6 | -54 | -4 | 1.0 | Arbovirus inh repeat=-10

Carrying on.
SMILES | Mtb growth | Mtb bLac sens | YopH PTP inh | Arbovirus inh | RecA intein inh | others
Cc1c(NC(=O)CSc2nc3ccccc3s2)c(=O)n(-c2ccccc2)n1C | -7% | -2 | -12 | -4 | 2.9
COc1ccc(/C=N/n2c(-c3n[nH]c4c3CCC4)n[nH]c2=S)cc1 | -4% | -8 | · | · | 0.1
COC(=O)c1cc(Br)ccc1NC(=O)CCNC(=O)c1ccco1 | · | 7 | · | · | -0.6
Cc1ccc(S(=O)(=O)N(Cc2ccc(Cl)cc2)c2ccccc2C(=O)NCc2ccco2)cc1 | 0% | 8 | -32 | 3 | 14
CCOC(=O)c1cc(-c2ccc(N)cc2)sc1N | -4% | 61 | 7 | -22 | 4.0
O=C(CSc1nnc(CNc2ccccc2)o1)c1ccc2c(c1)OCCO2 | 5% | 1 | -29 | -2 | 1.4
CS(=O)(=O)N1CCN(c2ccc([N+](=O)[O-])cc2F)CC1 | 2% | -3 | · | -1 | -2.5
CCc1nnc2c(NCCc3ccccc3)nc3ccccc3n12 | · | 3 | · | · | 1.0
CC1CCCCC1NC(=O)c1ccc2c(c1)[nH]c(=O)n2C1CCCC1 (centres undefined) | 38% | 98 | -17 | -7 | 0.3
CCC(C)(C)NC(=O)C(c1ccc(C)cc1)N(CCN1CCOCC1)C(=O)CNC(=O)c1cccs1 (centres undefined) | -19% | -7 | · | 11 | 0.4
CN1CCN(S(=O)(=O)c2cccc(C(=O)N(C)C(c3ccccc3)c3ccccc3)c2)CC1 | · | 8 | · | · | -0.3
COCCNC(=O)C(c1ccc(O)cc1)N(Cc1cccs1)C(=O)CCC(=O)Nc1ccccn1 (centres undefined) | · | -3 | · | · | 0.7
N#Cc1ccncc1S(=O)c1ccc(Cl)cc1 (centres undefined) | · | 5 | · | · | 4.5
CCCN1CCN(C(=O)CCc2nnc3ccc(N4CCN(c5cccc(OC)c5)CC4)nn23)CC1 | · | -1 | · | · | -0.7
O=C(O)CCn1[nH]c(=O)ccc1=O | 3% | -5 | -8 | 1 | -2.1
CN(C)CCc1nn[nH]n1 | -3% | 0 | -27 | 0 | -1.3
Cc1cc(Nc2ccccc2)nc(N2CCN(C(=O)c3ccc4c(c3)OCO4)CC2)n1 | · | 3 | · | · | 4.3
CCN1CCN(c2nc3c(c(=O)n(C)c(=O)n3C)n2CCSc2nccc(C)n2)CC1 | 3% | 9 | -34 | 3 | 0.9
Cc1ccc(C(=O)NCc2ccco2)cc1S(=O)(=O)N1CCOCC1 | -12% | 6 | -14 | 3 | ·
CCOC(=O)C1(Cc2cccc(F)c2)CCN(C(=O)C2CCC2)CC1 | -4% | -2 | · | -2 | -1.8
O=C(CCC(=O)NNc1nc2ccccc2c2nc(-c3ccccc3)nn12)NCCCN1CCCC1=O | 6% | -1 | · | 0 | -1.6
COCCn1c(Cc2ccccc2)nnc1SCc1nc2ccccc2c(=O)[nH]1 | 6% | -2 | -45 | -4 | -0.3
O=C(NCCCC1CCCC1)C1CCC(=O)N(Cc2cccc(C(F)(F)F)c2)C1 (centres undefined) | · | 23 | · | · | 3.8
Cc1cc2nc(CS(=O)(=O)c3ccccc3)cc(=O)n2[nH]1 | 4% | 5 | · | 1 | -8.0
CN(C)/C=N/S(=O)(=O)c1cccn1-c1ncc(C(F)(F)F)cc1Cl | -7% | -5 | · | 3 | 1.3
C=CCNC(=S)N/N=C/c1ccc(-c2ccc(Br)cc2)o1 | ? | 89 | 23 | 12 | 1.5
Nc1nc(SCc2ccc3c(c2)OCO3)n[nH]1 | 7% | 10 | -30 | -3 | ·
COc1ccc(CCNC(=O)COC(=O)c2ccc(N3CCCC3=O)cc2)cc1 | -4% | 1 | · | 5 | -4.9
CC12CCC(C(=O)Nc3cc(F)ccc3F)(CC1=O)C2(C)C (centres undefined) | 1% | -2 | · | 3 | -2.5
Cn1cc(CNC(=O)Nc2ccc3c(c2)OCO3)cn1 | -9% | -1 | -34 | 21 | 0.2
CS(=O)(=O)c1ccc(Cl)c(NC(=O)COC(=O)COc2ccc3c(c2)CCC3)c1 | · | -2 | · | · | -3.4
COc1ccc(/C(C)=N/Nc2ccc(C(=O)O)cc2)c(OC)c1 | 9% | 17 | -39 | -3 | 1.3
OCCNc1nc(OCC(F)(F)F)nc(N2CCN(C34CC5CC(CC(C5)C3)C4)CC2)n1 | 1% | -6 | -16 | -6 | -2.4
O=C(NCCS(=O)(=O)c1ccc(Cl)cc1)c1ccc(F)cc1 | 5% | -8 | · | 0 | -2.6
Cc1ccc(Oc2nnc(-c3ccccc3)c3ccccc23)cc1 | 5% | 22 | -32 | -11 | 3.1
O=C(Cc1ccccc1)N1CCN(C(=O)c2cccs2)CC1 | -18% | -5 | -39 | 1 | 1.9
c1ccc(NCCCNc2ccccc2)cc1 | 3% | -5 | -27 | 3 | -0.9
Cc1n[nH]c(C)c1S(=O)(=O)N1CCCC(C(=O)NC2CCCCC2)C1 (centres undefined) | · | -9 | · | 5 | 1.5
COc1ccc(C2C(C(=O)N3CCC(C(N)=O)CC3)CC(=O)N2c2ccc(OC)cc2)cc1 (centres undefined) | -1% | 2 | · | 0 | 1.2
O=C(Nc1ccc2c(c1)C(=O)NC2=O)c1cccc(C(F)(F)F)c1 | · | 2 | · | · | -0.1
Cc1cc(NC(=O)CSc2ccc3nnc(CCNC(=O)c4ccccc4)n3n2)no1 | 2% | -4 | · | 2 | -2.5
COc1ccc(C(=O)Nc2c(N)nc(SCC(=O)N3CCC(C)CC3)[nH]c2=O)cc1OC | 6% | -3 | -30 | 2 | -0.7
CCN(CC)c1cc(C)c2cc(NC(=O)c3ccccc3OC)ccc2n1 | 48% | 90 | · | -16 | 3.0
Cc1cc(-c2nnc(SCC(=O)c3ccc4c(c3)OCCO4)o2)no1 | 2% | -8 | -3 | 10 | -4.1
COc1ccc(NC(=O)Nc2ccc(F)cc2)c(C)c1 | 4% | -3 | · | 2 | -0.9
CCn1c(C)nc2cc(C(=O)N/N=C/c3ccc(O)cc3)ccc21 | 1% | -3 | -28 | 0 | -10
CC(=O)c1ccc(NC(=O)Nc2ccc3c(c2)nc(C)n3C)cc1 | -1% | 1 | · | 5 | 0.8
Cc1cccc(NC(=O)Nc2ccc(C#N)cc2)n1 | -5% | -6 | -34 | 8 | 5.1 | Arbovirus inh repeat=-4
Cn1c(=O)c2c(ncn2CCOc2cccc(Br)c2)n(C)c1=O | · | 7 | · | · | 0.7
CS/C(N)=N/N=C/c1ccc([N+](=O)[O-])cc1 | 1% | -7 | 9 | -2 | 0.0
O=C(Nc1cccc(C(F)(F)F)c1)c1cc2c(s1)-c1ccccc1OC2 | -3% | 2 | -20 | 2 | -37
CCCCN(CCCC)CC(O)COc1ccccc1C(=O)Nc1ccccc1 (centres undefined) | 12% | 14 | · | 3 | 1.2
CC(C)C(=O)NC(c1cccc([N+](=O)[O-])c1)c1ccc2cccnc2c1O (centres undefined) | · | 7 | · | · | 2.2
COC(=O)CCSCC(=O)N1N=C(c2ccc(OC)cc2)CC1c1cccc(OC)c1OC (centres undefined) | -2% | 0 | · | 7 | 0.3
COc1ccc(-c2coc3cc4oc(=O)cc(-c5ccccc5)c4cc23)cc1F | -10% | -4 | -48 | -34 | -7.6
CC12CCC(C(=O)Nc3ccc(Br)cn3)(OC1=O)C2(C)C (centres undefined) | -10% | -7 | · | · | ·
Cc1ccc(O)c(N=Nc2ccc(S(=O)(=O)N3CCOCC3)cc2)c1 | -10% | 2 | · | -1 | -2.4
Cn1c(=O)n(Cc2ccccc2Cl)c(=O)c2c1[nH]c(=S)n2C | · | -3 | · | · | -3.1
COc1ccccc1NC(=O)c1c([N+](=O)[O-])c(C(C)(C)C)nn1C | -3% | 44 | · | · | 0.3
COc1ccc2c(-c3ccccc3)cc(SCC(=O)NC(N)=O)nc2c1 | 4% | -5 | · | -8 | 0.4
(more compounds)
SMILES | Mtb growth | Mtb bLac sens | YopH PTP inh | Arbovirus inh | RecA intein inh | others
CCOc1ccc(NC(=O)CC2C(=O)Nc3ccccc3N2C(=O)c2ccccc2)cc1 (centres undefined) | -4% | 1 | · | -1 | -0.9
CCC(Sc1ncccc1C(=O)OCCN1CCCC1=O)C(=O)NCc1ccco1 (centres undefined) | -5% | -7 | -32 | 1 | -0.7
Cc1ccc(C(=O)n2c(N)nc3ccccc32)cc1 | · | 97 | · | 0 | 1.3
COc1ccc(-c2ccc(NC(=O)c3ccco3)cc2)nn1 | · | -10 | · | · | -1.7
O=C1N(c2ccccc2)C2CS(=O)(=O)CC2N1c1ccc(Cl)c(Cl)c1 (centres undefined) | -10% | 3 | -23 | 6 | 2.2
Cc1ccc(S(=O)(=O)N2CCCCC2)cc1C(=O)NCCCN1CCOCC1 | · | -15 | · | · | -0.5
O=C(O)CCC(=O)N(Cc1ccco1)C1CC(=O)N(c2ccccc2)C1=O (centres undefined) | -4% | -4 | · | · | 1.8
CC1=NN2C(=N)/C(=C\c3cc(C)n(Cc4ccccc4)c3C)C(=O)N=C2S1 | -7% | -7 | · | · | ·
CCCn1nnnc1NCc1ccccc1OCc1ccc(F)cc1 | 10% | 16 | -21 | -1 | 3.0
O=C(O)[C@H]1NC[C@H]2C[C@H]21 | -7% | -5 | · | 5 | -0.3
CC1=C(C(=O)Nc2ccccc2)C(c2ccccc2[N+](=O)[O-])NC(=O)N1 (centres undefined) | 4% | 1 | · | -1 | -1.5
O=C(Nc1ccccc1)C1CCCN1C(=O)Nc1ccccc1[N+](=O)[O-] (centres undefined) | -6% | -7 | · | -2 | 0.8
O=C(O)c1cc(NC(=O)c2ccccc2[N+](=O)[O-])ccc1O | -3% | 4 | · | 1 | -1.7
CN1CCCC(C#CC(O)(c2ccccc2)c2ccccc2)C1 (centres undefined) | 1% | 2 | · | -2 | 0.4

Screening data from PubChem BioAssay.

A portion of the library; count on the stated rates, not on these rows.
